Screens from PubChem.
HNF4A DNA FP: change in binding of human HNF4A to DNA, primary screen, biochemical, fluorescence polarization, FITC-DNA. Hepatocyte nuclear factor 4-alpha (Homo sapiens), P41235. 1 h. AID 1224865, 2016. activity change, % at 10 µM. 0.3% of 360,000 active; in the data active = activity change above about 30%, passing the limit was not always enough;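 note: controls were the assay level and a saturating level of protein; the project sought stronger binding though the title names inhibitors; some compounds called inactive have numbers as strong as hits; positive values seem to mean higher polarization but the record does not say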
Ecoli growth: E. coli growth inhibition, primary screen, OD600; 0.21% of 330,000 active; Escherichia coli growth, 23 h; active compounds read low; OD600 absorbance (concentration not given with the values);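 active = OD600 absorbance below the run mean of sample wells minus 3.6 SD, in any replicate, cut at about 0.56 in these data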;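 note: stock transfer was 300 nL into about 60 µL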
B2AR ag: beta2AR agonists driving receptor internalization, primary screen, cell-based, FAP fluorogen, flow cytometry | Am2.2-beta2AR cells; reference of the scale not given here | response, % (no concentration beside the values) | 0.43% of 340,000 active | AID 504454, 2011;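 active = response above a set limit, near 3 SD of response in nonfluorescent compounds, cut at about 42% in these data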;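 note: stock transfer was 100 nL into about 11 µL; a reference agonist was the positive control; negative values mostly stem from fluorescent compounds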
Target sequence (P07550 whole entry, looked up): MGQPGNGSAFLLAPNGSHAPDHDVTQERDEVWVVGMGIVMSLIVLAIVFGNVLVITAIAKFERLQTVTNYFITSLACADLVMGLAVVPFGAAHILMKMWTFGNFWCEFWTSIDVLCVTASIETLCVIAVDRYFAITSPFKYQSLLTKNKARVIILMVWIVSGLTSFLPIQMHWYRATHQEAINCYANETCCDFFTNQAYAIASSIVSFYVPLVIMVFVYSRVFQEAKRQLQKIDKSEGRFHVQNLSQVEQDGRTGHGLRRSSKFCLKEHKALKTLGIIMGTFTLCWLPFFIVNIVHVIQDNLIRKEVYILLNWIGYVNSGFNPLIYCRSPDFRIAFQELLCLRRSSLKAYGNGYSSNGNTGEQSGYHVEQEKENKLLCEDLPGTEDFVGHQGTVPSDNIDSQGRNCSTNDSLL
FGF22 binding: binders of human FGF22 protein, primary screen, FGF22 synaptogenesis inhibitor project, biophysical, thermal shift, single point | recombinant FGF22 thermal shift, SYPRO orange fluorescence; percent of sucrose octasulfate shift, DMSO zero | 1.5% of 340,000 active | calls only at 9.99 µM | AID 651658, 2012;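 active = melting point raised past a set limit in the mean and every replicate; three in four hits are not shown here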
ALR inh: inhibitors of human ALR sulfhydryl oxidase, primary screen, biochemical, H2O2 detection, HRP-luminol luminescence, single point. FAD-linked sulfhydryl oxidase ALR (Homo sapiens), P55789. purified ALR, DTT oxidation. inhibition, % (no concentration beside the values). 3.8% of 290,000 active. AID 485317, 2010;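 active = mean and each replicate at 75% or more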;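 note: stock transfer was 7.5 nL into about 7.5 µL; 0% = neutral wells and 100% = wells with inactivated enzyme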
Target sequence (P55789 whole entry, looked up): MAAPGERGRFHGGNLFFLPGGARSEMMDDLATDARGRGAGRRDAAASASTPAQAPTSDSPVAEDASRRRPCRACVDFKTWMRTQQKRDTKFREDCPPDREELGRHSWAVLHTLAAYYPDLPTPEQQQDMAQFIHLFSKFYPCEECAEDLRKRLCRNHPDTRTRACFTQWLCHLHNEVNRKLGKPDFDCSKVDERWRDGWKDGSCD
UCH37 inh: inhibitors of human UCH37 deubiquitinase, primary screen, biochemical, Ub-AMC cleavage, fluorescence | Ubiquitin carboxyl-terminal hydrolase isozyme L5 (Homo sapiens), Q9Y5K5 | purified proteasome/UCH37 | inhibition, % (test concentration not listed) | 0.33% of 330,000 active | AID 588478, 2011;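 active = mean of two replicates above 20%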;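 note: 0% = compound-free wells with enzyme and 100% = wells lacking proteasome; stock transfer was 100 nL into about 20 µL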
Target sequence (Q9Y5K5 whole entry, looked up): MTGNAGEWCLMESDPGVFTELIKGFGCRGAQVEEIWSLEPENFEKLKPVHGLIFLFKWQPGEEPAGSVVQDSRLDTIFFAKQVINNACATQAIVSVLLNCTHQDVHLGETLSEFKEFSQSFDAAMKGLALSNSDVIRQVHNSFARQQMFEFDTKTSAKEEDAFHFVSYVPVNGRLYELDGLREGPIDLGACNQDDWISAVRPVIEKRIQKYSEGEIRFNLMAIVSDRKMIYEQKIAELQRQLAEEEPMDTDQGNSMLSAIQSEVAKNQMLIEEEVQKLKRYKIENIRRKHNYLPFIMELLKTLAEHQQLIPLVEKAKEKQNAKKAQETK
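Material: Human UCH37 enzyme supplied as purified proteasome complex | Schedule: 30 min compound-proteasome preincubation then 25 min substrate reaction, room temperature | Detection: AMC fluorescence from Ub-AMC cleavage, excitation 355 nm, emission 460 nm | Benchmarks: Wells without proteasome as full block, compound-free enzyme plus substrate as uninhibited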
LANA-H2A inh: blockers of LANA interaction with H2A/H2B – biochemical, FP readout, HTS, primary screen; AID 2629, 2010; Protein LANA1 (Human herpesvirus 8 type P (isolate GK18)), Q9QR71; cell-free LANA-H2A/H2B peptide, fluorescence polarization; 0.6% of 320,000 active; inhibition, % (concentration not given with the values); in the data active = inhibition mostly above about 10%, no sharp cut-off; inactive = mostly below about 6.7%;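 note: stock transfer was 7.5 nL into about 10 µL; 0% = median of vehicle wells and 100% = median of positive control wells; one replicate is shown; the record names a cut of 25% in any replicate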
An asterisk follows results filed as active; i = inactive; / = not tested or not shown.

SMILES | HNF4A DNA FP | Ecoli growth | B2AR ag | FGF22 binding | ALR inh | UCH37 inh | LANA-H2A inh
O=C(CSc1nnc(-c2ccc3c(c2)OCO3)n1-c1ccccc1)c1ccc(Cl)cc1 | 1.4 | 0.672 | -6.4 | / | 10.4 | 4.3 | 2.0
CC(C)OC(=O)C(=O)NNc1ccccc1 | 0.1 | 0.688 | 4.1 | i | 100.5* | 1.4 | -3.3
Cc1cc(C(=O)OCC(=O)c2cccc([N+](=O)[O-])c2)c2cccc(C)c2n1 | 1.9 | 0.72 | 15.2 | / | -2.6 | 1.3 | 0.3
CC(C)CNC(=O)C(=O)NCC1OCCCN1S(=O)(=O)c1cccs1 (stereo unspecified) | 6.3 | 0.711 | 2.3 | i | -12.8 | -0.1 | 1.9
CCCC12CN3CCN(CC(C3)/C1=N\NC(=O)c1ccccc1Cl)C2 | -0.1 | / | -2.3 | / | -5.0 | / | 4.6
O=C(Nc1ccc(F)cc1)Nc1csc2ccccc12 | 4.7 | 0.576 | 5.0 | i | -1.8 | 5.7 | 0.8
Cc1ccc(NC(=O)c2cccc(Oc3ccc([N+](=O)[O-])cc3)c2)c(C(=O)O)c1 | 0.4 | 0.64 | 8.3 | / | 97.4* | -4.4 | 4.8
CSc1ccc(C2=C/C(=C3/SC(=S)NC3=O)c3ccccc3O2)cc1 | -1.6 | 0.763 | 4.3 | / | / | 11.3 | /
O=CN1CCN(C(=O)COc2ccc(Cl)cc2Br)CC1 | -3.7 | 0.722 | 1.6 | i | -3.4 | 0.5 | 2.6
CC(=O)N(C)c1ccc(NC(=O)Nc2cccc3ccccc23)cc1 | -1.4 | 0.626 | 2.7 | i | -27.7 | 0.0 | 2.3
CCCNC(=O)C1CC2Cn3c(nc4ccccc43)C2N1C (stereo unspecified) | 2.1 | 0.668 | -1.2 | i | / | -1.5 | -7.9
CC1(C)CC(=O)CC(=O)/C1=N\Nc1c(Cl)cc(Cl)cc1Cl | 1.3 | / | -2.2 | i | -0.2 | / | 3.5
COc1ccc(NC(=S)N(CCO)Cc2ccccc2)cc1 | 3.4 | 0.692 | -7.6 | / | 10.7 | 4.4 | 1.2
O=C(NC1CCS(=O)(=O)C1)c1sc2ccccc2c1Cl (stereo unspecified) | 3.5 | 0.678 | -9.8 | i | -14.3 | 3.5 | -0.3
COc1ccccc1OCCNC(=O)C1CC(=O)N(c2ccccc2OC)C1 (stereo unspecified) | -0.5 | 0.68 | -4.5 | i | -11.8 | 3.0 | -1.2
CC(=O)N1CCC(N(CCN2CCOCC2)C(=S)Nc2cc(C)cc(C)c2)CC1 | -0.7 | 0.694 | -6.0 | i | / | 3.5 | 1.4
CC1CCCC(C)N1C(=O)COC(=O)CCc1nc2ccccc2c(=O)[nH]1 (stereo unspecified) | 0.9 | 0.708 | 4.3 | / | / | 4.3 | 4.0
CCCCC(=O)C1=C(N2CCCC2)CC(C)(C)CC1=O | -1.1 | 0.701 | 0.8 | / | 0.3 | -0.8 | 3.7
CC(=O)S[C@@H]1CC2=CC(=O)CC[C@]2(C)[C@H]2CC[C@@]3(C)[C@@H](CC[C@@]34CCC(=O)O4)[C@H]12 | 2.9 | / | -0.3 | i | -9.2 | -0.9 | -2.8
CCc1ccc(Nc2n[n+](-c3ccccc3)c(-c3ccc(SC)cc3)s2)cc1 | 7.4 | 0.685 | -0.5 | i | -9.0 | 0.9 | -3.6
CCn1nc(C)c(NC(=O)c2ccc(Cl)cc2)c1C | -2.6 | 0.657 | 4.4 | i | / | -2.8 | 0.1
Cc1noc(C)c1S(=O)(=O)N1CCC(C(=O)N2CCN(Cc3ccc4c(c3)OCO4)CC2)CC1 | 2.9 | 0.681 | -3.3 | / | 1.0 | -0.1 | -5.0
C/C(=N/NC(=O)c1ccc(O)cc1)c1cccc([N+](=O)[O-])c1 | 1.9 | / | 4.2 | i | -2.5 | / | -6.4
COc1ccc(NS(=O)(=O)c2ccc(NC(=S)NCC3CCCO3)cc2)cc1 (stereo unspecified) | 0.4 | 0.675 | -0.3 | i | 10.6 | 3.3 | 0.7
Cc1cc(C)c(NC(=O)CSc2nnc(-c3ccco3)n2N)c(C)c1 | 4.7 | 0.657 | -0.9 | / | -3.3 | 1.9 | 6.4

(list continues)
SMILES | HNF4A DNA FP | Ecoli growth | B2AR ag | FGF22 binding | ALR inh | UCH37 inh | LANA-H2A inh
O=C(CCn1c(=O)oc2ccccc21)n1c(=O)oc2ccccc21 | 1.5 | 0.716 | 7.8 | / | 96.2* | 2.1 | 6.6
O=C(CN1C(=O)C2C3C=CC(C3)C2C1=O)Nc1ccc(S(=O)(=O)N2CCCCC2)cc1 (stereo unspecified) | 0.8 | 0.713 | 0.2 | / | -5.4 | 1.0 | 5.2
CCOC(=O)C(NC(=O)Nc1ccc(C(N)=O)cc1)(c1ccccc1)C(F)(F)F (stereo unspecified) | 1.0 | 0.714 | -4.0 | / | -4.1 | 2.2 | -2.6
Cc1ccc(SCCC(=O)NC(C)(C)C)cc1 | -5.3 | 0.696 | -1.2 | / | / | 1.6 | -1.7
O=C(O)CCCCCNCc1c(Cl)cccc1Cl | -1.9 | 0.716 | -5.6 | i | -5.0 | 2.7 | -6.5
O=C(CSc1ccc2nnc(CCNC(=O)c3ccccc3)n2n1)Nc1ccc(F)cc1F | 3.4 | 0.735 | -5.9 | i | 9.2 | -2.2 | -0.8
COc1ccccc1OCCNC(=O)C(=O)c1c[nH]c2ccccc12 | -0.8 | 0.697 | -7.1 | i | / | 3.6 | 4.0
COCCN(C(=O)CCC(=O)Nc1ccccn1)C(C(=O)NC1CCCC1)c1ccc(OC)cc1 (stereo unspecified) | 0.9 | 0.78 | -8.6 | / | -16.1 | 3.9 | 1.9
Cn1c(=O)c2c(Nc3ccc(F)cc3)cc(=O)n(-c3ccccc3)c2n(C)c1=O | 3.3 | 0.69 | -11.7 | i | -7.2 | 6.1 | -0.3
CCCn1c(-c2cccs2)nc2c1c(=O)[nH]c(=O)n2Cc1ccccc1 | -1.3 | 0.683 | -12.9 | i | -3.7 | -76.3 | -5.5
O=C(Cc1ccc(Cl)cc1)Nc1ccc2c(c1)C(=O)NC2=O | 1.8 | 0.676 | 9.8 | i | 1.0 | -46.7 | -3.1
CCCCN1C(=O)C2ON(c3ccccc3C)C(c3ccco3)C2C1=O (stereo unspecified) | -2.4 | 0.709 | 1.4 | i | -18.6 | 2.6 | -3.6
COC(=O)CN1C(=O)N(c2ccccc2)C(N(O)C(=O)Nc2ccccc2)C1(C)C (stereo unspecified) | 6.0 | 0.693 | 0.7 | / | / | -1.6 | -0.1
O=C1CSC(c2cccc(Cl)c2Cl)N1c1ccccn1 (stereo unspecified) | 0.1 | 0.679 | 3.9 | i | -17.0 | 1.1 | -4.1
CN(C)Cc1cc(C(C)(C)c2cc(CN(C)C)c(O)c(CN(C)C)c2)cc(CN(C)C)c1O | 3.9 | 0.714 | 2.6 | / | -4.3 | -0.7 | 0.2
CCOC(=O)c1ccc(NC(=S)NCCCN2CCCC2=O)cc1 | 2.8 | 0.707 | 0.3 | i | 12.2 | -1.2 | 1.5
Cc1c(CC(=O)NCCCCCC(=O)O)c(=O)oc2c(C)c3oc4c(c3cc12)CCCC4 | -3.3 | 0.665 | 2.9 | i | 13.5 | -20.2 | -2.7
Cc1ccccc1C(=O)NNC(=O)c1ccoc1C | 2.8 | 0.65 | -1.6 | / | 1.1 | 3.6 | 2.1
Fc1ccc(-c2nc(-c3cccs3)no2)cc1 | -3.0 | 0.714 | -8.4 | i | -0.3 | 0.2 | 0.3
COc1cc(C(=O)N2CCN(C3CCC(C)CC3)CC2)cc(OC)c1OC (stereo unspecified) | 2.3 | 0.617 | 4.2 | i | -7.1 | 0.0 | 3.1
CCNC(=O)C(=O)NCCC1CCCCN1S(=O)(=O)c1cccs1 (stereo unspecified) | 1.6 | 0.676 | -1.7 | i | -2.2 | 3.5 | -2.4
COc1cc(CC(=O)NNC(=O)c2cc(C)oc2C)cc(OC)c1OC | -1.9 | 0.669 | 5.8 | / | 62.7 | 2.9 | -1.7
Cc1ccc(OCCC(=O)N(CC(=O)Nc2ccccc2C(F)(F)F)Cc2ccco2)cc1 | 3.6 | 0.715 | -3.2 | / | / | 1.8 | /
CCCCn1c(N)c(N(CCC(C)C)C(=O)c2ccc(-c3ccc([N+](=O)[O-])cc3)o2)c(=O)[nH]c1=O | 0.9 | 0.663 | -6.4 | i | 4.3 | 0.8 | /
O=C(Cn1cnc2ccccc2c1=O)NCC(=O)N1CCN(Cc2ccc3c(c2)OCO3)CC1 | 1.3 | 0.796 | 1.9 | / | -17.6 | 3.2 | 1.7

Carrying on:
SMILES | HNF4A DNA FP | Ecoli growth | B2AR ag | FGF22 binding | ALR inh | UCH37 inh | LANA-H2A inh
Cc1ccc(Nc2nc(-c3ccncc3)nc3ccccc23)cc1 | -2.2 | / | 14.9 | / | -13.7 | / | -1.7
Cc1cccc(NC(=O)CSc2nc3nc(C)cc(C)n3n2)c1 | 3.2 | 0.639 | -14.0 | i | -3.0 | 5.5 | -4.8
Cc1ccccc1OCc1nc2ccccc2c(=O)n1/N=C/c1ccco1 | -2.0 | / | -8.4 | / | -2.0 | / | -3.4
CC(C)(C)NC(=O)COC(=O)c1c2c(nc3ccccc13)CCC2 | -2.8 | 0.722 | 9.5 | i | -2.2 | -10.3 | 1.5
CC(C)(C)c1ccc(C(=O)NNC(=O)c2ccc(Cl)cc2)cc1 | -1.2 | 0.684 | 0.7 | i | / | 2.4 | /
COc1ccc(Cl)cc1NC(=O)C/C(C)=N/NC(=O)CC#N | 3.5 | / | -2.6 | / | 12.1 | / | -5.1
CCc1nc2ccccc2c(C(=O)OCC(=O)Nc2cccc(S(=O)(=O)NC3=NCCCCC3)c2)c1C | -1.3 | 0.668 | 19.6 | i | -4.6 | 6.2 | 4.7
Cc1cccc(N2CCN(C(=O)c3cccs3)CC2)c1C | -6.0 | 0.637 | 4.7 | i | 0.2 | 5.5 | -3.5
Cc1cc2cc(CNC(=O)c3ccc(S(=O)(=O)N4CCOCC4)cc3)ccc2n1C | -4.0 | 0.752 | -9.1 | i | -15.4 | 3.4 | 4.8
Cc1cccc(C)c1OCc1nc2ccccc2[nH]1 | 3.2 | 0.677 | -10.8 | i | -4.4 | 5.6 | 0.1
CCOCCn1c(CN2CCCCC2C)nc2c1c(=O)n(C)c(=O)n2C (stereo unspecified) | -0.3 | 0.79 | -4.2 | i | -3.2 | 4.5 | -5.6
CCC(=O)Nc1ccc(C(=O)NNC(=O)c2ccc([N+](=O)[O-])cc2)cc1 | 1.1 | 0.687 | -3.8 | i | -3.6 | 5.2 | 0.8
COc1ccccc1NC1=NC(CO)(CO)CS1 | 3.2 | 0.691 | 3.8 | i | 5.6 | 0.0 | 0.7

Given in markdown: entries from further up
| molecule | HNF4A DNA FP | Ecoli growth | B2AR ag | FGF22 binding | ALR inh | UCH37 inh | LANA-H2A inh |
| --- | --- | --- | --- | --- | --- | --- | --- |
| COc1ccc(Cl)cc1NC(=O)C/C(C)=N/NC(=O)CC#N | 3.5 | / | -2.6 | / | 12.1 | / | -5.1 |
| CC(=O)N1CCC(N(CCN2CCOCC2)C(=S)Nc2cc(C)cc(C)c2)CC1 | -0.7 | 0.694 | -6.0 | i | / | 3.5 | 1.4 |
| CC1CCCC(C)N1C(=O)COC(=O)CCc1nc2ccccc2c(=O)[nH]1 (stereo unspecified) | 0.9 | 0.708 | 4.3 | / | / | 4.3 | 4.0 |
| CCOCCn1c(CN2CCCCC2C)nc2c1c(=O)n(C)c(=O)n2C (stereo unspecified) | -0.3 | 0.79 | -4.2 | i | -3.2 | 4.5 | -5.6 |
| CC1(C)CC(=O)CC(=O)/C1=N\Nc1c(Cl)cc(Cl)cc1Cl | 1.3 | / | -2.2 | i | -0.2 | / | 3.5 |

The list is partial. The share of hits here may be higher or lower than overall.
